Screening results as filed in PubChem.
AF4-AF9 inh = inhibitors of human MLL-AF4/AF9 interaction; hit rate 0.47% among 350,000; AID 651704; inhibition, % at 10 µM; AlphaScreen, biotin-AF4 peptide binding to FLAG-AF9; P42568;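 active means every replicate reaching a set inhibition limit, whatever the replicate mean, cut at about 25% in these data; inconclusive means mean inhibition reaches that limit but some replicates miss it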;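 further: 0% = plate neutral control median and 100% = total signal loss; the record names both 10 and 1 µM as test concentration; the first replicate is given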
Target sequence (P42568 whole entry, looked up): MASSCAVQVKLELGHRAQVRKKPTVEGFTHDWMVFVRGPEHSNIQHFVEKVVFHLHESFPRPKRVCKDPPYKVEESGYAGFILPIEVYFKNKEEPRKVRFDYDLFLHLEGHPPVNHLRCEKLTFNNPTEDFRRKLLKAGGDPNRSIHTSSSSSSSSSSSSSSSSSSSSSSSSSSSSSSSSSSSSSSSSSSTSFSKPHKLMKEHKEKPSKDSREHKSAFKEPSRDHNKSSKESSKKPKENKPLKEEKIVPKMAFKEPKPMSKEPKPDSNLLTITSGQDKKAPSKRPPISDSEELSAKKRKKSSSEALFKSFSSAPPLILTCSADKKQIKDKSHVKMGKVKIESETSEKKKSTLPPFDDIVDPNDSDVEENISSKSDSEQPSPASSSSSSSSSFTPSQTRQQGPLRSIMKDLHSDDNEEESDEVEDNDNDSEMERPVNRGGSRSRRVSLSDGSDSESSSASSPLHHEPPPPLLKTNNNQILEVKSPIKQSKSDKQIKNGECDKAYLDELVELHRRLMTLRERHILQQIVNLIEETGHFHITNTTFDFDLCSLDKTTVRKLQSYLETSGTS
A1 inh = inhibitors of the anti-apoptotic protein A1, read as caspase activation; hit rate 0.066% among 330,000; AID 2462; caspase activation, % (test concentration not listed); MEF A1-2A-BIM cells, Caspase-Glo 3/7 luminescence, 3 h; percent of clofoctol response, vehicle zero;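 active means over half of replicate activation scores above 10%, or exactly half above 10 with the replicate mean above 10; inconclusive means replicate mean below 10 yet half the replicates above 10; inactive means over half of replicates below 10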;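 further: wells of about 30 µL received 50 nL stock; many hits fall short of the cut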
RanGTP-Impb inh = inhibitors of RanGTP-importin-beta interaction, primary screen, biochemical, FRET, CFP-Ran, YFP-importin-beta, homogeneous; cell-free CFP-Ran/YFP-importin-beta FRET ratio; inhibition, % (test concentration not listed); hit rate 1.1% among 300,000;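 active means most replicates above 15%; inconclusive means exactly half above 15%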;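 further: 0% = DMSO wells and 100% = Ran loaded with GDP instead of GTP; wells of about 40 µL received 100 nL stock; the first replicate is given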
Calb FLC = affects C. albicans growth with fluconazole | C. albicans CaCi-2 (fluconazole-resistant clinical isolate) + fluconazole, Alamar Blue growth, 48 h | hit rate 0.57% among 300,000 | AID 1979 | growth inhibition, % (test concentration not listed);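 active means most replicates above 75%; inconclusive means exactly half above 75%; inactive means most below 75%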;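 further: all wells also contain fluconazole at 8 µg/ml as a sub-toxic cotreatment; 0% = median of DMSO wells and 100% = median of geldanamycin control wells; wells of about 8 µL received 7.5 nL stock; the first replicate is given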
T cruzi repl = T. cruzi replication inhibition. T. cruzi beta-gal in NIH3T3, luminescence, 90 h. hit rate 1.4% among 300,000. inhibition, % (concentration not given with the values);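 active means mean inhibition across valid replicates above about 55%, limit read from the data; inconclusive means mean below that limit but half or more replicates reach it; inactive means mean below it, under half of replicates reach it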;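 further: signal also drops with host cell toxicity which is not excluded here; 0% = plate median of DMSO wells and 100% = zero luminescence signal; higher percent means less beta-gal luminescence so fewer parasites; stock transfer was 50 nL into about 50 µL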
LANA-H2B inh = blocks KSHV LANA binding to histone H2A/H2B; AID 2629; Q9QR71; inhibition, % (no concentration beside the values); hit rate 0.6% among 320,000; cell-free LANA-H2A/H2B peptide, fluorescence polarization; in the data active means inhibition mostly above about 10%, no sharp cut-off; inactive means mostly below about 6.7%;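 further: stock transfer was 7.5 nL into about 10 µL; 0% = median of vehicle wells and 100% = median of positive control wells; one replicate is shown; the record names a cut of 25% in any replicate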
Beta apoptosis = blocks beta cell apoptosis; INS-1E cytokine-induced death, ATP luminescence, 48 h; percent of positive-control rescue, neutral wells zero; AID 435005; hit rate 0.8% among 300,000; protection from apoptosis, % (test concentration not listed);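 active means all replicates at 75% or more, or half of them and the mean; inconclusive means half reach 75% but not the mean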;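 further: 0% = cytokine-treated negative control wells and 100% = positive control rescue; higher means more ATP so stronger rescue from cytokine killing; wells of about 40 µL received 100 nL stock; the first replicate is given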
Vif TR-FRET = inhibitors of Vif binding to APOBEC3G peptide, primary screen, biochemical, TR-FRET, GST-Vif 1-94, biotin-A3G peptide, dose response retest (AID 1117319) | hit rate 0.57% among 260,000 | TR-FRET GST-Vif / biotin-A3G peptide binding; higher % means a stronger effect; test concentration not given here; strong numbers were not always called active | inhibition, %, or IC50 in µM where a hit was titrated;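 active means above the screen mean plus three standard deviations and confirmed in dose response; inconclusive means results disagree or hit not tested in dose response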;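 further: Vif residues 1-94 fused to GST binding biotinylated APOBEC3G peptide 110-148; 0% = full assay without inhibitor and 100% = GST in place of GST-Vif; retest series ran down from 100 µM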
Active calls of the source: *.

`CCn1cc(C(=O)NC2CCCCC2C)c(=O)c2ccc(C)nc21` (stereo not given) gave A1 inh 0.0, RanGTP-Impb inh 4.2, Calb FLC 3, T cruzi repl 22, LANA-H2B inh 1.8, Beta apoptosis -3 and Vif TR-FRET -2%.
Screening COc1ccc(C2CC(=O)C3=C(C2)NC(C)=C(C(=O)Nc2ccccc2C)C3c2coc3ccc(C)cc3c2=O)cc1OC (stereo not given) returned A1 inh inconclusive, LANA-H2B inh 3.6, Beta apoptosis 21 and Vif TR-FRET 3%.
Screening Cc1cc(C)n(C(=O)c2ccc(C)o2)n1 returned A1 inh 1.7, RanGTP-Impb inh 0.8, Calb FLC -2, T cruzi repl -13, LANA-H2B inh -1.0, Beta apoptosis -3 and Vif TR-FRET -4%.
Screening CCCN(CCC)c1ncnc2c1cnn2-c1ccc(OC)cc1 returned A1 inh -2.0, RanGTP-Impb inh inconclusive, Calb FLC 9, T cruzi repl 18, LANA-H2B inh -1.5, Beta apoptosis 0 and Vif TR-FRET -2%.
Screening CCCCNc1nc2c(S(=O)(=O)c3ccccc3)nnn2c2ccccc12 returned AF4-AF9 inh -6.7, A1 inh 1.0, RanGTP-Impb inh 2.7, Calb FLC 7, T cruzi repl -3, LANA-H2B inh 11, Beta apoptosis 1 and Vif TR-FRET -204%.
For CCOC(=O)Cc1csc(NC(=O)CSc2ncnc3c2cnn3-c2ccc(OC)cc2)n1 the results were A1 inh -5.7, RanGTP-Impb inh -1.3, Calb FLC -6, T cruzi repl 3, LANA-H2B inh -2.3, Beta apoptosis -7 and Vif TR-FRET -11%.
CCCCOc1ccc(C(C)NC(=O)CCS(=O)(=O)Cc2ccc(C)cc2)cc1 (stereo not given) was read as A1 inh -0.3, RanGTP-Impb inh -2.5, Calb FLC 70, T cruzi repl -3, LANA-H2B inh 1.8 and Beta apoptosis 8.
For CC(=O)Oc1ccc(Nc2ccccc2)cc1 the results were AF4-AF9 inh 2.8, A1 inh -0.4, RanGTP-Impb inh -3.0, Calb FLC -23, T cruzi repl 12, LANA-H2B inh -2.4, Beta apoptosis 7 and Vif TR-FRET -4%.
`Cc1ccc(Cl)cc1N1CCN(C(=O)Cc2ccc(-n3c(=O)[nH]c4ccsc4c3=O)cc2)CC1` gave AF4-AF9 inh 3.5, A1 inh -0.8, RanGTP-Impb inh -5.2, Calb FLC 9, T cruzi repl 17, LANA-H2B inh -6.8, Beta apoptosis 12 and Vif TR-FRET -7%.
O=C(CSc1nnc(-c2ccccc2)o1)NC1CCCCC1 was read as A1 inh -0.3, RanGTP-Impb inh inconclusive, T cruzi repl -2, LANA-H2B inh 5.7, Beta apoptosis 1 and Vif TR-FRET 4%.
Cc1ccc(S(=O)(=O)N2CCCCC2)cc1C(=O)N1CCCC1 was read as AF4-AF9 inh 0.8, A1 inh 0.0, RanGTP-Impb inh -2.1, Calb FLC -2, T cruzi repl 0, LANA-H2B inh 8.3 and Beta apoptosis -6.
For O=[N+]([O-])c1cc(C(F)(F)F)ccc1N1CCC(O)CC1 the results were AF4-AF9 inh 0.5, A1 inh 0.2, RanGTP-Impb inh -1.6, Calb FLC 3, T cruzi repl -8, LANA-H2B inh 4.8, Beta apoptosis -5 and Vif TR-FRET -6%.
`COc1ccc(S(=O)(=O)NCC(c2cccnc2)N2CCN(Cc3ccccc3)CC2)cc1C` (stereo not given) gave AF4-AF9 inh 4.6, A1 inh 1.0, RanGTP-Impb inh -0.6, Calb FLC 2, T cruzi repl 57*, LANA-H2B inh -1.1, Beta apoptosis 4 and Vif TR-FRET -6%.
CCCCCCCCCCCC(=O)NC(C(=O)O)C(O)c1ccccc1 (stereo not given) was read as AF4-AF9 inh -7.4, A1 inh -0.5, RanGTP-Impb inh 7.7, Calb FLC 16, T cruzi repl -6, LANA-H2B inh 1.7 and Beta apoptosis -3.
Cc1cccc(N2CCN(CC(=O)NCC3CCCCC3)CC2)c1C was read as A1 inh -0.5, RanGTP-Impb inh 3.5, Calb FLC -13, T cruzi repl 25, LANA-H2B inh -3.7, Beta apoptosis 13 and Vif TR-FRET >100µM*.
CCOC(=O)C1CCCN(C(=O)c2ccc(CS(=O)(=O)c3ccc(Br)cc3)o2)C1 (stereo not given) was read as AF4-AF9 inh -2.1, A1 inh 0.4, RanGTP-Impb inh -2.5, Calb FLC 7, T cruzi repl -3, LANA-H2B inh 1.8, Beta apoptosis -2 and Vif TR-FRET >100µM*.
Screening Cn1c(=O)n(C)c2cc(S(=O)(=O)N3CCN(c4ccccc4)CC3)ccc21 returned AF4-AF9 inh -24, A1 inh 0.9, RanGTP-Impb inh -2.7, Calb FLC 4, T cruzi repl -2, LANA-H2B inh 2.1 and Beta apoptosis -12.
Screening CCCC(=O)N(Cc1cc2cccc(C)c2[nH]c1=O)c1ccccc1OC returned A1 inh 0.5, RanGTP-Impb inh 1.6, Calb FLC 8, T cruzi repl -3, LANA-H2B inh -3.2, Beta apoptosis 17 and Vif TR-FRET -3%.
Screening COc1cc(C(=O)Oc2ccc(Br)cc2C(=S)N2CCOCC2)cc(OC)c1OC returned AF4-AF9 inh 7.9, A1 inh 0.0, RanGTP-Impb inh 0.4, Calb FLC 6, T cruzi repl -7, LANA-H2B inh 3.5 and Beta apoptosis 5.
CC(NC(=O)COC(=O)Cc1ccsc1)C1CC2CCC1C2 (stereo not given) was read as A1 inh -0.4, RanGTP-Impb inh -0.2, Calb FLC 2, T cruzi repl 5, LANA-H2B inh -1.4, Beta apoptosis 0 and Vif TR-FRET 5%.
`Cc1[nH]c(=O)c(C#N)c2c1COC(C)(C)C2` gave A1 inh 0.4, RanGTP-Impb inh 2.5, Calb FLC -9, T cruzi repl 7, LANA-H2B inh -5.6 and Beta apoptosis -6.
CC(C)C(=O)Nc1ccc(C(=O)Nc2ccc(Br)cc2F)cc1 was read as AF4-AF9 inh -2.8, A1 inh -0.2, RanGTP-Impb inh 5.4, Calb FLC 29, T cruzi repl -3, LANA-H2B inh -2.7, Beta apoptosis 11 and Vif TR-FRET -11%.
Cc1ccc(C)c(OCCC(=O)OCC(=O)c2c(N)n(C)c(=O)n(C)c2=O)c1 was read as AF4-AF9 inh -0.1, A1 inh 0.5, RanGTP-Impb inh 1.2, Calb FLC 3, T cruzi repl -6, LANA-H2B inh -1.3, Beta apoptosis -6 and Vif TR-FRET 20%.
CC(NC(=O)Nc1ccccc1O)(C(F)(F)F)C(F)(F)F was read as A1 inh -0.4, RanGTP-Impb inh 0.1, Calb FLC -38, T cruzi repl -9, LANA-H2B inh -4.3 and Vif TR-FRET 31%.
For Cc1[nH]n(-c2ccc([N+](=O)[O-])cc2)c(=O)c1C=NCCN1CCN(C(=O)c2ccccc2)CC1 the results were A1 inh -8.0, RanGTP-Impb inh 4.6, Calb FLC inconclusive, T cruzi repl -9, LANA-H2B inh 0.2, Beta apoptosis 46 and Vif TR-FRET 3%.
Screening CCOC(=O)/C(=C/c1ccc(OC(=O)c2ccncc2)cc1)C(C)=O returned AF4-AF9 inh -4.9, A1 inh -0.2, Calb FLC 21, T cruzi repl -12, LANA-H2B inh -1.7, Beta apoptosis -7 and Vif TR-FRET 2%.
`COc1cc(CNC(=O)CCCC/C=C/C(C)C)ccc1O` gave AF4-AF9 inh -1.7, A1 inh 3.0, LANA-H2B inh 1.9 and Beta apoptosis 1.
`CCOC(=O)CCc1n[nH]c(=O)[nH]c1=O` gave A1 inh -0.5, RanGTP-Impb inh 3.8, Calb FLC 1, T cruzi repl -12, LANA-H2B inh -5.5, Beta apoptosis -1 and Vif TR-FRET -3%.
`CC(C)Cn1c(N)c(C(=O)COC(=O)C2Cc3ccccc3CN2S(C)(=O)=O)c(=O)n(C)c1=O` (stereo not given) gave AF4-AF9 inh 0.3, A1 inh -1.8, LANA-H2B inh 2.7, Beta apoptosis 27 and Vif TR-FRET -3%.
`CC(=O)COc1ccc2c(C)c(C)c(=O)oc2c1` gave A1 inh 1.2, RanGTP-Impb inh -1.0, Calb FLC 2, T cruzi repl -5, LANA-H2B inh 2.0, Beta apoptosis -11 and Vif TR-FRET inconclusive.
COC(=O)C1=CN(CCOC23CC4CC(CC(C4)C2)C3)C=C(C(=O)OC)C1c1ccsc1 was read as AF4-AF9 inh -9.8, A1 inh 0.7, RanGTP-Impb inh 1.7, Calb FLC -9, T cruzi repl 39, LANA-H2B inh -8.4, Beta apoptosis 8 and Vif TR-FRET -4%.
For CS(=O)(=O)n1nc(NCc2cccs2)nc1NCc1cccs1 the results were AF4-AF9 inh -2.4, A1 inh 0.1, RanGTP-Impb inh -4.6, Calb FLC -11, T cruzi repl 2, LANA-H2B inh -5.4, Beta apoptosis -1 and Vif TR-FRET 21%.
For COc1ccc(CCNC(=O)c2c(C)cc(=O)oc2C)cc1OC the results were AF4-AF9 inh -0.2, A1 inh 1.9, RanGTP-Impb inh inconclusive, Calb FLC 1, T cruzi repl -9, LANA-H2B inh 4.8, Beta apoptosis -2 and Vif TR-FRET 3%.
For Cc1ccc(N2C(=O)C(NC(=O)c3ccccc3)(C(F)(F)F)C3=C2CC(C)(C)CC3=O)cc1 (stereo not given) the results were AF4-AF9 inh -13, A1 inh -0.7, RanGTP-Impb inh 11, Calb FLC 1, T cruzi repl 7, LANA-H2B inh -2.9 and Beta apoptosis -3.
For CCN(CC)CC(=O)Nc1cccc(S(=O)(=O)N2CCCC2)c1 the results were AF4-AF9 inh 0.3, A1 inh -0.2, RanGTP-Impb inh 1.9, Calb FLC 24, T cruzi repl 10, LANA-H2B inh 1.0, Beta apoptosis -2 and Vif TR-FRET 8%.
O=C(/C=C/c1ccccc1Cl)Nc1cccnc1 was read as AF4-AF9 inh 1.9, A1 inh -7.0, RanGTP-Impb inh -6.4, Calb FLC inconclusive, T cruzi repl -18, LANA-H2B inh 1.1 and Vif TR-FRET -8%.
For Cc1ccc(-n2cnc3ncnc(-c4ccccc4)c32)cc1 the results were AF4-AF9 inh -3.1, A1 inh 0.0, RanGTP-Impb inh -5.2, Calb FLC 0, T cruzi repl -17, LANA-H2B inh 2.2, Beta apoptosis 1 and Vif TR-FRET 12%.
Cc1cccc(NC(=S)NCC(c2cccnc2)N2CCOCC2)c1C (stereo not given) was read as AF4-AF9 inh -0.5, A1 inh 0.0, RanGTP-Impb inh 3.6, Calb FLC -1, T cruzi repl 13, LANA-H2B inh 1.3 and Beta apoptosis -5.
Screening COc1cc(OC)cc(-c2c(-c3ccc(F)cc3)c3cc(-c4ccc(SC)cc4)ccc3n2C)c1 returned AF4-AF9 inh -5.1, A1 inh 2.1, LANA-H2B inh 1.7 and Beta apoptosis 11.
`O=C(Cn1cc2c(n1)CCCC2)NCCCN1CCN(Cc2ccccc2)CC1` gave AF4-AF9 inh 6.2, A1 inh 0.4, RanGTP-Impb inh -0.7, Calb FLC -1, T cruzi repl 29, LANA-H2B inh 1.5, Beta apoptosis -5 and Vif TR-FRET 3%.
